Ba CapD inh = CapD enzyme inhibition. purified CapD enzyme, fluorescence intensity read-out; hits give low values; some hits fall short of the stated cut. z-score (no concentration beside the values). 140,000 compounds, 0.23% hits. AID 492967;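 active = z-score under -4 in either of two replicates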;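 note: stock transfer was 100 nL into about 40 µL; score is relative to mean and spread of the plate; one replicate is shown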
AID504770 = E. coli YBA685 growth inhibition, screen for V. cholerae RctB inhibitors; E. coli YBA685 rctB-dependent plasmid, OD600 growth, 3 h; hits give low values; z-score (no concentration beside the values); 130,000 compounds, 0.27% hits; AID 504770;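 active = z-score under -2 on both plates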;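 note: wells of about 30 µL received 100 nL stock; score is relative to mean and SD of the test wells; the first replicate is given; strong numbers were not always called active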
* hit, by the source's call; i = inactive; . = not tested or not shown; & = joins results of further samples.

Values run as follows: Ba CapD inh, AID504770
Cc1ccc(S(=O)(=O)N2CCCC2C(=O)NC2CCCCC2)cc1 (centres undefined)
  0.4, 0.15
CC(C)C(NC(=O)C12CC3(C)CC(C)(CC(C)(C3)C1)C2)C(=O)O (centres undefined)
  -0.035, -0.5
N#Cc1ccccc1NC(=O)CSc1nc2c(cc1C#N)CCCC2
  0.94, .
O=C1/C(=C/c2ccccn2)SC(=Nc2ccccc2)N1c1ccccc1
  -0.025, .
COc1cccc2c(=O)n(CC(=O)N3CCCC3)ccc12
  14, -0.1
Cc1cc(NC(=O)CSc2c[nH]c3ccccc23)no1
  -0.075, -0.55
CCc1nc(NC2CCCCC2)c(C#N)c2c1CCCC2
  2.3, 0.95
OCC1c2ccccc2Oc2ccccc21
  14, -0.8
COc1ccc(-c2csc(N)n2)cc1
  i, -1.3
COC(=O)c1cccc(Nc2nc(-c3ccccc3O)nc3ccccc23)c1
  -0.77, .
CC(C)(C)n1nnnc1C(c1ccccn1)N1CCN(c2cccc(C(F)(F)F)c2)CC1 (centres undefined)
  ., 0.15
CCOc1cc(/C=C2\Sc3ccccc3C2=O)cc(I)c1O
  -0.12, 1.7
Cc1ccc2c(c1)N(S(=O)(=O)c1ccc(Cl)cc1)C(C(C)(C)C)CO2 (centres undefined)
  0.27, .
COc1cc(OC)nc(CSCC(=O)NCC2CCCO2)n1 (centres undefined)
  -0.5, .
O=C(O)Cc1csc(N2CCCC2=O)n1
  ., -1.1
O=S(=O)(Cc1noc(-c2cc(Cl)cc(Cl)c2)n1)c1ccc(Cl)cc1
  0.035, 0.4
CCOCCn1cnc2sc(C(=O)NCCOC)c(C)c2c1=O
  6.2, .
COc1ccc(C2=C(N3CCC(C(N)=O)(N4CCCCC4)CC3)c3ccccc3C2=O)cc1
  -0.56, -0.4
CN1CCN(C(=O)c2ccccc2NC(=O)c2ccc(Cl)cc2)CC1
  0.27, 0.8
COc1cc(OC)nc(Oc2ccc3c(-c4cccc(C(F)(F)F)c4)cc(=O)oc3c2)n1
  -0.65, .
CC(C)(C)OC(=O)N1CCN(c2nc(-c3ccccc3)c3ccccc3n2)CC1
  -0.15, .
NC(=O)c1cnn(C2CCS(=O)(=O)C2)c1 (centres undefined)
  -0.47, 1.6
CCC(C)(C)c1ccc(S(=O)(=O)N2CCCC2COC)cc1 (centres undefined)
  0.48, .
COc1ccc(C2=NN(C(=O)c3cc(OC)c(OC)c(OC)c3)C(c3ccc(C)cc3)C2)cc1OC (centres undefined)
  1.2, .
CN(C)c1cccc(C(=O)N/N=C2\CCSc3ccc(F)cc32)c1
  ., -0.75
O=C(O)C12CC3CC(C1)CC(C(=O)O)(C3)C2
  -0.045, -0.45
CCc1c(C)c(C#N)c2nc3ccccc3n2c1NCc1ccco1
  1.2, 1
Nc1n[nH]c(C2CCCCC2)n1
  ., 0.05
Cc1nn2c(nc1=O)SCC2(O)c1ccccc1 (centres undefined)
  -0.37, -1.8
COC(=O)c1ccc(NC(=O)c2ccn[nH]2)cc1
  ., 1.5
COC(=O)CC1SC(=O)N(c2ccc(C)cc2)C1=O (centres undefined)
  ., -0.8
Cc1cc2cc(CNc3ccc(N4CCCC(O)C4)cc3)c(=O)[nH]c2cc1C (centres undefined)
  0.47, 0.4
COc1ccc(-c2noc(-c3cc4c(COC(C)=O)cnc(C)c4oc3=O)n2)cc1
  -0.56, 0.9
OC(COc1ccc(Br)cc1)Cn1nnc2ccccc21 (centres undefined)
  0.01, -0.1
CCOc1ccc(S(=O)(=O)NCc2ccccc2)cc1-c1nc2c(C(C)(C)C)nn(C)c2c(=O)[nH]1
  0, -0.35
CCOC(=O)[C@@H]1Nc2ccc(C(=O)O)cc2[C@@H]2C=CC[C@H]12
  -0.55, 0.1
O=C1/C(=C/c2ccccc2OC(F)F)CS(=O)(=O)c2ccc(F)cc21
  ., -1.1
COCC(=O)Oc1c(Sc2c(F)c(F)c(F)c(F)c2F)c(C)nn1C(C)(C)C
  ., -1
N#Cc1cc2c(N)c(C(=O)Nc3ccccc3C(F)(F)F)sc2nc1N
  -0.21, .
COC(=O)Cc1[nH]nc2c1C(C1C=CCCC1)C(C#N)=C(N)O2 (centres undefined)
  -0.07, -0.35

Part of the list above, set out differently:
smiles: Cc1cc2cc(CNc3ccc(N4CCCC(O)C4)cc3)c(=O)[nH]c2cc1C (centres undefined)
- Ba CapD inh: 0.47
- AID504770: 0.4

smiles: COc1ccc(-c2noc(-c3cc4c(COC(C)=O)cnc(C)c4oc3=O)n2)cc1
- Ba CapD inh: -0.56
- AID504770: 0.9

The results go on:
Values run as follows: Ba CapD inh, AID504770
Cc1cc(C)n2nc(C(=O)N/N=C/c3ccncc3)nc2n1
  ., -0.6
CCOC(=O)c1cc(S(=O)(=O)NCCc2ccccc2)cn1C
  -0.19, 1.5
O=C(CC(=O)c1ccccc1)Nc1cc(C(F)(F)F)ccc1Cl
  11, -0.35
Cn1c(=O)[nH]c(=O)c2c1nc(NNC=O)n2Cc1ccc(Cl)cc1
  ., -2
FC(F)(F)c1cccc(Sc2cnc3ccccc3n2)c1
  0.18, -0.55
CCOC(=O)/C(N=O)=C(/O)c1c[nH]c2ccccc12
  -1.1, -0.9
COc1ccccc1CN(C(=O)C(c1ccccc1)c1ccccc1)c1ccc2[nH]c(C(C)(C)C)cc2c1
  -0.34, .
CC(=O)Oc1cc2c(C(=O)N3CCCC3)c(C)oc2c2ccccc12
  0.34, -0.75
O=C(O)C(Cc1ccsc1)c1ccccc1 (centres undefined)
  0.13, 0.95
O=C(c1cccs1)c1cccs1
  -0.64, .
CCOC(=O)CSc1nnc(-c2ccc(N(C)C)cc2)o1
  1.2, -0.35
N#CC(C#N)=Cc1cn(CC(=O)Nc2ccccc2)c2ccccc12
  ., 0.3
CCCOc1ccc(NC(=O)C2CC(=O)N(C)C(=Nc3ccc(OC)cc3)S2)cc1 (centres undefined)
  0.15, .
CN(C(=O)COC(=O)c1cccs1)C1CCS(=O)(=O)C1 (centres undefined)
  ., 1.6
Cc1cc(C(=O)NNC(=O)CC2C3CCC(C)(C2O)C3(C)C)n[nH]1 (centres undefined)
  -0.33, .
CCSc1nc2ccccc2n1CC(=O)Nc1cc(Cl)ccc1OC
  -0.71, -0.15
O=C(NCC1CCCO1)c1c[nH]c2ccccc2c1=O (centres undefined)
  ., -0.35
CCCCn1c(CCCNC(=O)c2ccco2)nc2ccccc21
  0.34, 0.25
Cn1c(N)c(C(C[N+](=O)[O-])c2ccc(Cl)cc2Cl)c(=O)n(C)c1=O (centres undefined)
  0.59, .
CCOC(=O)C1=NN(c2ccc(Br)cc2)C2(S1)SC(c1ccc(Br)cc1)(c1ccc(Br)cc1)c1ccccc12 (centres undefined)
  -0.19, .
COCCNC(=S)N1CCCN(c2nc3cc(C)ccc3cc2C#N)CC1
  ., -0.6
CN1C(=O)C(=Cc2cccn2-c2ccccc2)C(=O)N(C)C1=O
  -0.7, -0.65
COc1ccc(CNc2cc(C)cc(C)c2)cc1
  -0.14, 0.95
COC(=O)c1csc2c(C(F)(F)F)cc(N3CCN(S(=O)(=O)c4ccc(Br)cc4)CC3)nc12
  92, .
CCCn1c(C(F)(F)F)nc2ccccc21
  ., -0.3
CCOc1ccccc1NC(=O)c1cc([N+](=O)[O-])ccc1N1CCN(Cc2ccccc2)CC1
  0.33, .
CCOc1ccc2nc(SCCC(=O)Nc3ccc(OC)cc3)sc2c1
  -0.065, .
CCn1ccc(C(=O)Nc2ccccc2Cl)n1
  -0.39, -1.1
CC1CSC(N(C(=O)CN2CSCC2=O)c2ccc(Cl)cc2)=N1 (centres undefined)
  ., -0.5
N#Cc1c(=N)nc2oc3ccc(Cl)cc3c3c(C#N)c(N)[nH]c1c23
  1.4, 0.55
CCOc1ccc(NC2=NCCCS2)cc1
  0.5, 0.15&0.5
COc1ccc(CCn2c(=S)[nH]c3c(sc4ccccc43)c2=O)cc1OC
  1.8, -0.3
CC(C)(C)c1ccc(-c2nnc(-c3cccc([N+](=O)[O-])c3)o2)cc1
  -0.46, .
O=C1N(c2ccc3c(c2)OCO3)C(c2ccc(F)cc2)C1(F)F (centres undefined)
  ., -0.7
CCN(Cc1ccncc1)S(=O)(=O)c1ccc(Cl)cc1
  0.31, -0.5
O=C1N/C(=N\O)S/C1=C/c1cccnc1
  -3.7, -0.45
O=C(CN1C2=NCCN2c2ccccc21)c1ccc2c(c1)OCO2
  0.29, .
O=C(Oc1ccc(C2(c3ccc(OC(=O)c4ccc(F)cc4)cc3)c3ccccc3-c3ccccc32)cc1)c1ccc(F)cc1
  0.095, .
CCOC(=O)c1nc(N)c(=O)n(-c2ccc(Cl)cc2)n1
  -0.2, -0.6
COc1ccc(C2CC(c3cc4ccccc4oc3=O)=Nc3ccccc3N2)cc1 (centres undefined)
  19, -0.25

Given with each value named: entries from further up
N#Cc1c(=N)nc2oc3ccc(Cl)cc3c3c(C#N)c(N)[nH]c1c23
  Ba CapD inh = 1.4 | AID504770 = 0.55

CCOc1ccc(NC2=NCCCS2)cc1
  Ba CapD inh = 0.5 | AID504770 = 0.15&0.5

COc1ccc(CCn2c(=S)[nH]c3c(sc4ccccc43)c2=O)cc1OC
  Ba CapD inh = 1.8 | AID504770 = -0.3

CC(C)(C)c1ccc(-c2nnc(-c3cccc([N+](=O)[O-])c3)o2)cc1
  Ba CapD inh = -0.46 | AID504770 = .

(more compounds)
SMILES,Ba CapD inh,AID504770
O=C1CSC2(C(=O)Nc3ccccc32)N1c1ccc(F)cc1 (centres undefined),0.88,.
CCCCn1nnnc1CSc1nnc(-c2cc(OC)c(OC)c(OC)c2)n1-c1ccccc1F,.,-0.6
COc1ccccc1Oc1ccc(C(F)(F)F)cc1NC(=O)Cn1nc([N+](=O)[O-])cc1C,-0.7,.
Cc1cccc(C(=O)OCc2nc3ccccc3c(=O)[nH]2)c1C,0.07,1.6
O=C(CSc1nnc2ccccn12)NCc1cccs1,.,-0.95
N#C/C=C/N1CCC(Cc2ccccc2)CC1,.,-0.25
CCN(C#N)c1nc(C)cc(OC)n1,0.01,-0.35
Cc1ccc(CNS(=O)(=O)c2ccc(F)c(C(=O)Nc3c(F)cc(F)cc3Br)c2)cc1,-1.1,.
Nc1n[nH]c(CCc2ccccc2)n1,.,-0.3
CCOC(=O)c1sc(=NC(=O)c2ccc(S(=O)(=O)N3CCCCC3)cc2)n(C)c1C,2.2,-0.1
CC(Sc1nncn1C)C(=O)Nc1ccc(C#N)cc1 (centres undefined),.,-0.4
C=CCn1c(O)c2ccc(C(=O)N=C3N=c4ccccc4=N3)cc2c1O,.,-0.35
O/N=C/c1cc(Cl)cs1,-0.89,-0.75
O=C(c1ccccc1)c1cc(Cl)ccc1NC(=S)Nc1cccc(Cl)c1,0.93,.
COc1ccnc(Oc2cccc(C(F)(F)F)c2)c1C#N,-0.35,0.35
O=c1c(/C=N/N2CCOCC2)c(-c2ccccc2)[nH]n1-c1nc2ccccc2s1,0.22,-0.45
CCOC(=O)c1c(C)oc2cc(Br)c(O)cc12,-0.56,-1.1
COc1ccccc1NC(=O)c1c(C)nc2sc(C(N)=O)c(N)c2c1-c1ccc(C)s1,1.5,.
CC1CC1C(=O)OCC(=O)Nc1ccccc1Oc1ccccc1 (centres undefined),0.02,-0.8
CCOC(=O)/C=C(\C)Nc1nc2ccccc2s1,-0.15,-0.9
NNC(=O)c1n[nH]c2c1CCC2,0.27,2
CN(C)S(=O)(=O)c1ccc2c(c1)CCN2C(=O)CCC(=O)NCC1CCCO1 (centres undefined),0.005,.
CC(=O)N1C(=O)NC(=O)C1(C)C,.,-1.1
Cc1ccccc1OC(=O)Cn1c(=O)sc2ccccc21,0.23,1.1

The final 2 records of the section before lead into the next.
SMILES,Ba CapD inh,AID504770
CC(=O)N1C(=O)NC(=O)C1(C)C,.,-1.1
Cc1ccccc1OC(=O)Cn1c(=O)sc2ccccc21,0.23,1.1
Cc1oc2ncn3nc(C(C)Oc4cccc5ccccc45)nc3c2c1C (centres undefined),-1,2.3
Cc1ccc(Sc2ccc(COC(=O)c3cccs3)cc2[N+](=O)[O-])cc1,-0.89,.
Cc1csc(C(C#N)C(=O)CSc2nc3ccccc3o2)n1 (centres undefined),.,-1.2
COc1ccccc1NC(=O)CCC(=O)O,0.32,-0.1
COc1ccc2cc3c(N)nn(C(=O)c4ccncc4)c3nc2c1,0.76,-0.55
COc1cccc(Cn2c(=O)n3nc(CCn4nc(C)cc4C)nc3c3ccccc32)c1,-0.005,0
CC(C)NC(=O)Cn1ncc2c(=O)oc3ccccc3c21,-0.57,0.55
O=C(NCCC1=CCCCC1)C1CCC(CNS(=O)(=O)c2ccccc2)CC1 (centres undefined),0.35,-0.05
Cc1ccc(S(=O)(=O)Nc2ccccc2N)cc1,-0.13,0.85
COCCN(Cc1cc2cc(C)c(C)cc2nc1Cl)C(C)=O,.,-0.55
c1ccc2c(c1)CCN(CCCNc1nc3ccccc3n3cnnc13)C2,1.1,-0.95
CC(C)(C)OC(=O)COc1ccc2oc(=O)sc2c1,-0.21,-0.2
c1csc(-c2nnc(N3CCCCCC3)c3ccccc23)c1,-0.76,-0.4
S=C(NCC1CCCO1)N/N=C/c1cccnc1 (centres undefined),-1.6,0.45
O=C(CNC(=O)c1ccccc1F)NCc1ccco1,0.03,-0.4
O=C1CN(c2ccc(S(=O)(=O)N3CCCC3)cn2)CCN1,.,0.2
CSC(=NC1CCCCC1)NC#N,0.05,-0.65
Cc1cnc(C(=O)OCc2c(C)cc(C(C)(C)C)cc2C)cn1,.,0.75

Screening data from PubChem.

These rows are one share of the data; rates above refer to the full screens.
